# Screening results as filed in PubChem BioAssay.
# ALR inh = human ALR oxidase inhibition via reduced H2O2; inhibition, % (no concentration beside the values); purified ALR, DTT oxidation, H2O2 HRP-luminol luminescence; P55789; AID 485317; actives 3.8% (n = 290,000);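 active = mean and each replicate at 75% or more; inconclusive = only one of the two met; inactive = neither met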;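 also: stock transfer was 7.5 nL into about 7.5 µL; 0% = neutral wells and 100% = wells with inactivated enzyme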
# Target sequence (P55789 whole entry, looked up): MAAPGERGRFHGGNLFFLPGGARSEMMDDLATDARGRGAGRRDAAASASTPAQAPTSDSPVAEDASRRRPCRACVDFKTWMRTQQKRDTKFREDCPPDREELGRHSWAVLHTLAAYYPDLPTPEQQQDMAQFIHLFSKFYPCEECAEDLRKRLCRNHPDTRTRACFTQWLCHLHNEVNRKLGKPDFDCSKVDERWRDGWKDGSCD
# Vif A3G = inhibitors of Vif binding to APOBEC3G peptide, primary screen, biochemical, TR-FRET, GST-Vif 1-94, biotin-A3G peptide, dose response retest (AID 1117319). TR-FRET GST-Vif / biotin-A3G peptide binding; higher % means a stronger effect; test concentration not given here; strong numbers were not always called active. actives 0.57% (n = 260,000). inhibition, %; hits with a dose series show IC50 in µM;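 active = above the screen mean plus three standard deviations and confirmed in dose response; inconclusive = results disagree or hit not tested in dose response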;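 also: Vif residues 1-94 fused to GST binding biotinylated APOBEC3G peptide 110-148; 0% = full assay without inhibitor and 100% = GST in place of GST-Vif; retest series ran down from 100 µM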
# LANA-H2A inh = blocks KSHV LANA binding to histone H2A/H2B. cell-free LANA-H2A/H2B peptide, fluorescence polarization. inhibition, % (test concentration not listed). actives 0.6% (n = 320,000); in the data active = inhibition mostly above about 10%, no sharp cut-off; inactive = mostly below about 6.7%;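 also: stock transfer was 7.5 nL into about 10 µL; 0% = median of vehicle wells and 100% = median of positive control wells; one replicate is shown; the record names a cut of 25% in any replicate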
# Calb FLC = affects C. albicans growth with fluconazole | actives 0.57% (n = 300,000) | growth inhibition, % (test concentration not listed) | C. albicans CaCi-2 (fluconazole-resistant clinical isolate) + fluconazole, Alamar Blue growth, 48 h;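 active = most replicates above 75%; inconclusive = exactly half above 75%; inactive = most below 75%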;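 also: all wells also contain fluconazole at 8 µg/ml as a sub-toxic cotreatment; 0% = median of DMSO wells and 100% = median of geldanamycin control wells; wells of about 8 µL received 7.5 nL stock; the first replicate is given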
# RanGTP-Imp inh = inhibitors of RanGTP-importin-beta interaction, primary screen, biochemical, FRET, CFP-Ran, YFP-importin-beta, homogeneous | inhibition, % (concentration not given with the values) | cell-free CFP-Ran/YFP-importin-beta FRET ratio | AID 2216 | actives 1.1% (n = 300,000);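 active = most replicates above 15%; inconclusive = exactly half above 15%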;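 also: 0% = DMSO wells and 100% = Ran loaded with GDP instead of GTP; wells of about 40 µL received 100 nL stock; the first replicate is given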
# Beta2AR agonist = agonists of human beta-2 adrenergic receptor inducing internalization | actives 0.43% (n = 340,000) | P07550 | response, % (concentration not given with the values) | Am2.2-beta2AR cells, FAP receptor internalization, flow cytometry; reference of the scale not given here | AID 504454;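 active = response above a set limit, near 3 SD of response in nonfluorescent compounds, cut at about 42% in these data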;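 also: stock transfer was 100 nL into about 11 µL; a reference agonist was the positive control; negative values mostly stem from fluorescent compounds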
# Target sequence (P07550 whole entry, looked up): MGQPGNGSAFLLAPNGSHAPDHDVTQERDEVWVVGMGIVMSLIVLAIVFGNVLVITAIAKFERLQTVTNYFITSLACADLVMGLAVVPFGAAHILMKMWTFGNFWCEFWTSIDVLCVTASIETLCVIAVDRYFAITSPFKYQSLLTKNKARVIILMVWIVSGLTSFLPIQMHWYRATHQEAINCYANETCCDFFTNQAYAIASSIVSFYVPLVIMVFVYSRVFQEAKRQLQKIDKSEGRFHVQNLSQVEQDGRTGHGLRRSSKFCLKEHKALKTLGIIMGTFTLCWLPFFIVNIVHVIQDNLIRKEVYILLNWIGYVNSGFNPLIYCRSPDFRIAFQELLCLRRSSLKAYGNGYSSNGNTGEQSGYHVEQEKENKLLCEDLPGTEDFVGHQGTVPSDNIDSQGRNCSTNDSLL
# HNF4A DNA FP = change in binding of human HNF4 alpha to DNA. AID 1224865. HNF4a-FITC DNA binding, fluorescence polarization, 1 h. activity change, % at 10 µM. actives 0.3% (n = 360,000); in the data active = activity change above about 30%, passing the limit was not always enough;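 also: controls were the assay level and a saturating level of protein; the project sought stronger binding though the title names inhibitors; some compounds called inactive have numbers as strong as hits; positive values seem to mean higher polarization but the record does not say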
# Target sequence (P41235 whole entry, looked up): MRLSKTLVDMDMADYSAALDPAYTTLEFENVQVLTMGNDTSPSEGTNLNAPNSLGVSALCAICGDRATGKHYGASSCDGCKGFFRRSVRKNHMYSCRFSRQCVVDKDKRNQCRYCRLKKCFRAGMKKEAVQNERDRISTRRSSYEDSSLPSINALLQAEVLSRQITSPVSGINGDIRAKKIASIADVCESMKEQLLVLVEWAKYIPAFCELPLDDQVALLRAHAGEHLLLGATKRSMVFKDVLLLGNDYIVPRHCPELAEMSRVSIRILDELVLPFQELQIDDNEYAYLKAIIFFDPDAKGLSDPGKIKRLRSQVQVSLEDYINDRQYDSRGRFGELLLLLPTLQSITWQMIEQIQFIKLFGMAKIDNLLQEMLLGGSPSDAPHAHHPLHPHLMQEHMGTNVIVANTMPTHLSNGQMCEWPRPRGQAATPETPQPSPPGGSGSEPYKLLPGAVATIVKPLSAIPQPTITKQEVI
# Active calls of the source: *; ? = inconclusive; nt = no result given.
SMILES,ALR inh,Vif A3G,LANA-H2A inh,Calb FLC,RanGTP-Imp inh,Beta2AR agonist,HNF4A DNA FP
CC(C)CCN1CCN(Cc2nc(-c3ccc(F)cc3)cs2)CC1CCO (centres undefined),-23,-6%,0.9,-10,1.0,-6,1.8
O=C(ON=C1CCN(S(=O)(=O)c2ccccc2)CC1)c1ccc(Cl)cc1,6,1%,-4.0,15,3.3,-1,-0.5
O=C(NCCC(=O)N1CCC2(CC1)NCCc1[nH]cnc12)c1cccc(Br)c1,-1,-2%,1.1,5,-1.0,3,0.0
Nc1c(Br)cc(Br)c2c1-c1ccc([N+](=O)[O-])cc1C2,nt,2%,nt,nt,nt,12,1.2
COc1ccc(OC)c(-c2nnc(SCC(=O)NC3CCCCC3)o2)c1,6,4%,0.6,-23,-1.9,-7,-1.9
Cc1ccc(C(=O)NCC(=O)Nc2cccc(S(=O)(=O)NC3=NCCCCC3)c2)cc1C,-4,8%,0.4,-11,1.6,5,1.8
CSc1nc2[nH]c3c(c2c2nncn12)CC(C)(C)OC3,-1,8%,0.4,11,4.2,6,-3.8
O=[N+]([O-])c1cc([N+](=O)[O-])c2nonc2c1Nc1ccccc1O,99*,8%,-0.8,-17,0.3,3,9.0
O=C(CCc1ccccc1)OCCOC(=O)CCc1ccccc1,-3,2%,-0.9,-12,-1.4,8,-1.4
Nc1nc(SCc2nc3scc(-c4ccccc4)c3c(=O)[nH]2)n[nH]1,-3,69%,4.2,-1,5.7,1,7.6
CC(C)Oc1cccc(C(=O)C2CCCN(C(=O)c3noc4c3CCCC4)C2)c1 (centres undefined),-9,-3%,0.6,-10,?,-17,-3.4
CS(=O)(=O)N1N=C(c2ccc3nccnc3c2)CC1c1ccccc1 (centres undefined),-4,-120%,-3.6,8,?,6,14
C=CCN1CCN(C(=O)c2oc3ccccc3c2C)CC1,-5,nt,-2.1,0,-0.4,-2,2.9
COc1ccccc1CCC(=O)N(C)CC(=O)Nc1ccc(F)cc1,-9,-2%,5.2,9,0.6,-4,-2.6
CCCCSc1nnc(CCCCCNC(=O)OC(C)(C)C)o1,4,2%,5.8,-5,-4.4,-4,-1.1
Cc1cc(OCC(=O)NCCCN2CCOCC2)cc(C)c1Cl,-8,-2%,5.0,0,-2.8,5,-1.6
COc1cccc(C(=O)NCCSc2ccc(C)cc2)c1,-14,nt,-1.6,-2,5.0,-5,-4.3
O=C(/C=C/c1ccc(Cl)cc1)c1cccnc1,-7,22%,-2.4,-3,3.0,-9,5.8
CC1(C(=O)NNC(=O)c2ccc([N+](=O)[O-])cc2)CC1(Br)Br (centres undefined),4,nt,-2.7,2,3.0,5,-5.7
Cc1ccc(S(=O)(=O)N2CCN(c3ccc([N+](=O)[O-])c4cccnc34)CC2)cc1,-11,19%,14,-23,-2.9,0,0.1
COc1cccc(NC(=O)c2ccc(N3C(=O)C4CC=C(C)CC4C3=O)cc2)c1 (centres undefined),nt,11%,0.2,-5,-1.5,6,1.3
CCOC(=O)c1oc2cc(O)cc(C)c2c1C,nt,-16%,nt,nt,nt,6,3.6
Cc1c(Br)c(=O)oc2c(Br)c(O)ccc12,8,-7%,1.0,?,3.0,13,2.7
CCS(=O)CCSC(=N)N (centres undefined),-4,5%,0.9,0,5.5,6,-0.4

# Look-ups from above:
# Reading of `Cc1c(Br)c(=O)oc2c(Br)c(O)ccc12` under Beta2AR agonist: 13
# Reading of `CCCCSc1nnc(CCCCCNC(=O)OC(C)(C)C)o1` under HNF4A DNA FP: -1.1
# Reading of `COc1ccccc1CCC(=O)N(C)CC(=O)Nc1ccc(F)cc1` under RanGTP-Imp inh: 0.6
# Reading of `CCS(=O)CCSC(=N)N` (centres undefined) under Vif A3G: 5%
# Reading of `Cc1ccc(S(=O)(=O)N2CCN(c3ccc([N+](=O)[O-])c4cccnc34)CC2)cc1` under LANA-H2A inh: 14

# Fetched by compound from above:
SMILES,ALR inh,Vif A3G,LANA-H2A inh,Calb FLC,RanGTP-Imp inh,Beta2AR agonist,HNF4A DNA FP
COc1cccc(NC(=O)c2ccc(N3C(=O)C4CC=C(C)CC4C3=O)cc2)c1 (centres undefined),nt,11%,0.2,-5,-1.5,6,1.3
O=C(/C=C/c1ccc(Cl)cc1)c1cccnc1,-7,22%,-2.4,-3,3.0,-9,5.8

# Later entries:
SMILES,ALR inh,Vif A3G,LANA-H2A inh,Calb FLC,RanGTP-Imp inh,Beta2AR agonist,HNF4A DNA FP
Cc1nc2ccccc2n1CC(=O)NC1CCCC1,-1,-2%,-9.9,-1,-0.4,2,-2.6
CCC(C)c1ccccc1NC(=O)COC(=O)C1=NN(c2ccccc2)C(=O)CC1 (centres undefined),-11,-6%,0.9,nt,nt,-8,2.3
C=CCNC(=O)Nc1ccc(OCC)cc1,-14,26%,1.7,20,6.0,7,2.6
COc1cc(CNC(C)c2ccccc2)c(Br)cc1OCC(N)=O (centres undefined),-2,-2%,-2.5,-11,?,6,3.1
Cn1c2ccccc2c2c(C(=O)NCc3ccco3)cn(C3CCCCC3)c(=O)c21,-1,5%,2.7,19,-2.2,6,-2.9
C=CCN1C(=O)CS/C1=C(\C#N)S(=O)(=O)c1ccc(C)cc1,-9,16%,-6.6,-8,-0.3,6,5.0
Cc1ccc(C2(C)NC(=O)N(CC(=O)NNC(=O)c3cc(C)oc3C)C2=O)cc1 (centres undefined),5,9%,-2.6,1,8.6,0,-0.1
O=C(CCCOc1ccccc1)N1CCN(C(=O)c2ccco2)CC1,-14,-5%,-0.4,27,1.8,1,1.7
COC(=O)CC1C(=O)NC2CCCCC2N1C(=O)CCl (centres undefined),-7,nt,4.1,?,4.3,-3,2.1
O=C(CSc1ncn[nH]1)N1CCN(S(=O)(=O)c2ccc(Cl)cc2)CC1,-45,25%,-1.9,0,6.4,-3,1.9
CCOc1ccc(C(=O)OCC(=O)Nc2ccc3c(c2)OCCO3)cc1OC,-4,-10%,-7.0,nt,nt,-2,-0.8
COc1cc2c(cc1OC)CN(C(=S)Nc1cccc(Cl)c1C)CC2,-20,?,-8.5,2,13,6,-3.8
CCCC(C)NC(=O)C1CC(=O)N(CCc2ccc(F)cc2)C1 (centres undefined),-6,nt,-5.8,-2,3.8,-6,-0.4
CC(C1CC2CCC1C2)n1c(-c2ccco2)n[nH]c1=S (centres undefined),41,nt,-6.0,8,4.3,8,-0.9
CC12CCC(=O)N1C(C(=O)Nc1ccc(Br)cc1Cl)CS2 (centres undefined),-7,2%,-8.7,5,4.5,-5,-1.3
CCn1c(SCC(=O)Nc2cc(C)on2)nnc1-c1c[nH]c2ccccc12,-19,?,3.4,-2,-0.5,0,-2.0
CCC(=O)Nc1ccc(C2C(=O)c3ccccc3C2=O)cc1,-2,3%,2.1,-3,2.3,1,-1.0
CCCC(=O)N=C1SC2CS(=O)(=O)CC2N1c1ccc(-c2nc3ccc(C)cc3s2)cc1 (centres undefined),64,1%,-0.3,-1,-0.4,3,8.0
CN(C)c1cccc(C(=O)N/C=C/n2cnc3cc(C(F)(F)F)ccc32)c1,0,9%,-3.8,-2,4.3,5,1.4
Cc1csc(NC(=O)CSc2nnc(Cc3cccn3C)n2-c2ccc(F)cc2)n1,-2,0%,4.7,0,3.7,-15,2.2
O=C(c1ccccc1)c1ccccc1C(=O)N1CCCC1,2,14%,-2.4,0,0.7,5,-0.3
O=C(CSc1nnc(CNC(=O)c2ccco2)o1)Nc1nc2ccccc2s1,-8,nt,3.3,-3,2.2,-3,-3.2
Cc1cc(C)nc(SCC(=O)Nc2nc(-c3ccccc3)c(-c3ccccc3)o2)n1,-1,10%,2.0,9,1.6,0,-4.0
Clc1ccc(CCNc2ncnc3nc[nH]c23)cc1,-32,-2%,-2.3,nt,nt,0,-0.9
CCc1ccc(C(=O)COC(=O)c2nn(C)c(=O)c3ccccc23)cc1,0,-5%,-2.6,-9,-1.0,-3,-2.1
Cc1nc(NC(=O)c2ccc(Br)o2)sc1C,19,-1%,-0.6,0,0.3,-6,2.0
COc1ccc(N2CCN(S(=O)(=O)c3ccc4c(c3)CCCC4)CC2)c([N+](=O)[O-])c1,-5,-10%,1.2,-7,-3.3,-1,0.4
CCOC(=O)N1CCN(C(=O)C2CCN(Cc3ccc(O)c(OCC)c3)CC2)CC1,20,nt,-0.7,-3,-0.7,14,-1.2
COC(=O)N1CC(=O)N(OC)C1c1ccc(Cl)cc1Cl (centres undefined),-2,5%,-6.2,-12,-3.0,1,-3.5
C/C(=N/OC(=O)C1CC1c1ccccc1)c1ccccc1 (centres undefined),0,-2%,-2.3,10,4.2,-4,0.4
O=C(NC(NC(=S)Nc1ccccc1Cl)C(Cl)(Cl)Cl)c1cccc(Cl)c1 (centres undefined),-22,nt,1.2,-26,1.9,26,0.0
CC(C)(C)OC(=O)NNC(=O)Nc1ccccc1C(F)(F)F,3,18%,-1.6,-2,-1.9,0,-0.4
CC(C(=O)NCC1CCCCC1)N(C)Cc1cccc(Cl)c1 (centres undefined),0,nt,-2.6,-5,2.0,13,2.1
COc1cc2c(cc1OC)CN(C(=O)c1cc3ccccc3oc1=O)CC2,5,2%,-3.1,0,3.2,nt,-0.6
O=C1COCC(=O)N1CCc1c[nH]c2ccccc12,2,nt,3.5,2,4.5,-5,-0.4
COc1ccc(N(CC(=O)Nc2ccc3c(c2)OCCO3)S(=O)(=O)c2c(C)noc2C)cc1,nt,4%,6.8,?,6.4,6,-1.7
COc1ccccc1NC(=O)C(C)OC(=O)C1CC(=O)N(c2ccc3c(c2)OCCO3)C1 (centres undefined),-8,nt,3.1,4,-4.8,1,-4.2
COc1ccccc1-c1c(C)nn2c(C)c(C(C)=O)cnc12,-10,0%,-1.2,-1,-2.6,2,-2.8
O=C(CCC(=O)c1cccs1)NNC(=O)c1ccccc1Cl,nt,nt,-49,nt,nt,-5,-0.2
O=C(Nc1c(Cl)cc(Cl)cc1C(=O)NCCN1CCOCC1)c1cccc([N+](=O)[O-])c1,99*,nt,-2.2,?,-2.8,3,2.2
O=[N+]([O-])c1c(N2CCN(CCO)CC2)nc2ccccn12,-2,nt,2.0,-2,?,-5,0.8
CCCCn1c(N)c(N(CCC(C)C)C(=O)CSc2nnc3ccccn23)c(=O)[nH]c1=O,2,-4%,-6.9,1,2.2,-9,1.3
COc1ccc2c(c1)c1c(n2C(C)=O)C(OC(C)=O)=NCC1,-7,?,-4.4,35,4.1,-1,0.1
CC(C)C[C@@H](CO)N1CCN(CCCc2ccccc2)CCC1=O,-9,nt,8.2,-6,0.2,-3,-2.3
O=C(CNCc1ccco1)Nc1ccccc1-n1cccc1,-5,23%,2.2,-3,2.6,-7,1.9
CCN(Cc1ccccc1)S(=O)(=O)c1ccc(S(=O)(=O)N(Cc2cccc(OC)c2)CC2CCCO2)cc1 (centres undefined),3,-3%,5.3,3,1.5,0,-2.0
CCOC(=O)c1sc(NC(=O)CSc2nncn2C)nc1C,-7,nt,4.7,-4,4.2,-3,-5.1
CCOC(=O)C1=C(COC(=O)c2cccc(NC(C)=O)c2)NC(=O)NC1C (centres undefined),3,5%,4.2,1,4.8,9,-0.6
Cc1[nH]n(-c2ccccc2)c(=O)c1/C=N/NC(=O)C(C)C,21,-1%,-4.3,-8,7.4,-6,3.0
Cc1nnsc1C(=O)Nc1ccc(Cl)cc1,-23,11%,-0.2,-3,-0.9,28,0.5
CCOC(=O)c1cccc(N2C(=O)C3C(C2=O)C2C=CC3C23CC3)c1 (centres undefined),-7,-4%,2.3,-2,0.0,-9,-2.9
CC(C)Cn1cnc2c1c(=O)n(CC(O)c1ccccc1)c(=O)n2CC(C)C (centres undefined),1,-3%,-6.2,13,6.9,-4,3.7
O=C(O)c1ccccc1N/N=C\c1ccnc2ccccc12,nt,2%,6.3,-4,0.4,5,-4.0
CC(OC(=O)c1cccc(-n2cnnn2)c1)C(=O)NCc1ccccc1 (centres undefined),-17,-10%,4.2,9,-2.5,-4,3.5
CN(NC(=O)c1ccccc1)c1ncc(C(F)(F)F)cc1Cl,-6,-6%,2.4,-13,-0.3,-3,5.2
